High-throughput results from PubChem BioAssay.
PrP 5UTR inh = suppresses PrP 5' UTR mRNA reporter expression; cell-based PrP 5' UTR mRNA reporter, plate reader; inhibition, % (test concentration not listed); 340,000 tested, 0.35% active; AID 488862;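 active = every replicate at 50% or more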;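 also: 0 = median of the neutral control wells; tested in H4 reporter cells; numbers are from one replicate; inactives centre near -14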
Sa RN4220 lethal = S. aureus RN4220 growth inhibition. OD600, 16 h. inhibition, % (no concentration beside the values). 330,000 tested, 0.33% active;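 active = z-score of -3 or lower and OD600 up to 0.18 on both plates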;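 also: plate controls were untreated cells for no effect and reference antibiotic for full effect; stock transfer was 100 nL into about 80 µL; one replicate is shown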
Mtb hypoxia inh = Mtb hypoxia fluorescent reporter inhibition. M. tuberculosis hypoxia-regulated fluorescent reporter, fluorescence. AID 1159583. fluorescence inhibition, % (test concentration not listed). 300,000 tested, 0.1% active;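 active = 35 to 45% if threefold the growth effect, above 45% if 1.5-fold the growth effect; inactive = the rest, general growth blockers included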;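 also: wells of about 50 µL received 100 nL stock; 0% = vehicle wells and 100% = reference inhibitor wells; whole bacteria with a GFP reporter of the hypoxia response; strong numbers were not always called active; many hits fall short of the cut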
Sa ugtP lethal = kills S. aureus RN4220 lacking UgtP; S. aureus RN4220 ugtP deletion, OD600 growth, 16 h; some inactives read as strong as hits; growth inhibition, % (concentration not given with the values); 330,000 tested, 0.54% active; AID 1259309;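 active = z-score under -3 and OD600 up to 0.15 on both plates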;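 also: plate controls were untreated wells for no effect and antibiotic for full effect; wells of about 80 µL received 100 nL stock; the first replicate is given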
Bead autofluor = compound fluorescence in toxin protease inhibitor counterscreen. fluorescence intensity (no concentration beside the values). AID 624483. 360,000 tested, 3.1% active. compound autofluorescence counterscreen, microsphere flow cytometry; hits give high values;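 active = at least 3 SD above the mean of all compounds, about 16000 in these data; inconclusive = too few beads counted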;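 also: 100 nL of 1 mM stock went into each well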
BJeLR viability = BJeLR cell viability loss | BJeLR (HRASV12) viability, CellTiter-Glo ATP luminescence, 48 h; reference of the scale not given here | inhibition, % (test concentration not listed) | 300,000 tested, 0.17% active | AID 1554;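 active = replicate mean above 50%; inconclusive = above 50% but judged a plate artefact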;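 also: 50 nL library stock added to about 25 µL; numbers are from one replicate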
Mtb hypoxia inh growth = further read-out of Mtb hypoxia inh, marked with its call; growth inhibition, %; measured here: M. tuberculosis growth (absorbance);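 0% = vehicle and 100% = reference antibiotic; read after six days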
* = called active by the depositor; ? = inconclusive; · = not tested or not shown.

SMILES | PrP 5UTR inh | Sa RN4220 lethal | Mtb hypoxia inh | Mtb hypoxia inh growth | Sa ugtP lethal | Bead autofluor | BJeLR viability
Cc1c(C(=O)Nc2ccc(S(=O)(=O)NCC3CCCO3)cc2)cccc1[N+](=O)[O-] (stereo not drawn) | -4.5 | 3.1 | 6.0 | -1.9 | 11.8 | 3782 | 4.8
O=C(C1CCCN(S(=O)(=O)c2cccnc2)C1)N1CCN(c2ccccn2)CC1 (stereo not drawn) | -15.7 | 1.3 | · | · | 9.8 | 6380 | -2.8
CCOC(OCC)c1ccc(/C=C\c2nccc(N)n2)cc1 | -38.3 | 1.8 | 5.2 | 2.1 | 8.8 | 2900 | 17.2
O=C(Cn1cc(C(=O)C2CC2)c2ccccc21)NCC1CCCO1 (stereo not drawn) | -19.1 | 0.3 | 5.9 | 6.1 | 0.9 | 4157 | -8.0
N#Cc1ccc(S(=O)(=O)N2CCCN(c3nc4ccc(Cl)cc4s3)CC2)cc1 | -26.8 | 1.6 | -4.3 | -6.0 | -2.0 | 5947 | -0.2
N/C(=N\OC(=O)Nc1ccc(Cl)c(Cl)c1)c1ncc(C(F)(F)F)cc1Cl | -7.1 | 4.2 | 11.4 | 6.6 | -24.8 | 3136 | -2.7
O=C(O)/C=C/C(=O)Nc1ccc(OC(F)(F)Cl)cc1 | -25.5 | · | · | · | · | 4649 | -3.9
COc1ccc(NC(=O)Nc2cc(C)ccc2F)cc1 | -52.0 | -3.0 | -6.3 | 2.2 | -4.1 | 11064 | -2.6
COc1cccc(-c2ncc3ccccc3c2COC(=O)N2CCCCC2)c1 | -35.2 | 8.0 | -2.3 | 1.2 | 1.0 | 3148 | ·
O=C(NCc1ccc(Cl)cc1)NCc1ccc(Cl)cc1 | -30.6 | 4.7 | 16.4 | 4.1 | 0.7 | 4962 | -0.1

The final 3 compounds of the part before lead into the next.
SMILES | PrP 5UTR inh | Sa RN4220 lethal | Mtb hypoxia inh | Mtb hypoxia inh growth | Sa ugtP lethal | Bead autofluor | BJeLR viability
COc1ccc(NC(=O)Nc2cc(C)ccc2F)cc1 | -52.0 | -3.0 | -6.3 | 2.2 | -4.1 | 11064 | -2.6
COc1cccc(-c2ncc3ccccc3c2COC(=O)N2CCCCC2)c1 | -35.2 | 8.0 | -2.3 | 1.2 | 1.0 | 3148 | ·
O=C(NCc1ccc(Cl)cc1)NCc1ccc(Cl)cc1 | -30.6 | 4.7 | 16.4 | 4.1 | 0.7 | 4962 | -0.1
Cc1ccc(NC(=O)c2nc(C)n(-c3ccc([N+](=O)[O-])cc3)n2)cc1 | -13.3 | 0.0 | -6.0 | 0.1 | -1.1 | 5827 | 8.7
CCOC(=O)N1CCN(C(=O)CSc2ccc3nnc(CCNC(=O)c4ccc(OC)cc4)n3n2)CC1 | -6.0 | -0.2 | 12.8 | 0.2 | 2.5 | · | 2.1
Cc1ccc(-n2c(-c3cccc(C)c3)n[nH]c2=S)cc1 | 8.9 | 2.0 | 13.2 | -4.4 | 12.1 | 7949 | -6.4
COc1ccc(-n2c(Cc3cccn3C)nnc2SCC(=O)NCc2ccccc2Cl)cc1 | -21.3 | -1.3 | · | · | 7.7 | 5429 | -14.6
O=C(CCOc1ccccc1)N1CCN(S(=O)(=O)c2cccs2)CC1 | -16.6 | 2.2 | 0.2 | 3.6 | -3.0 | 2434 | -8.6
COc1ccc(-c2cnnc(NN=Cc3ccc(-c4ccc([N+](=O)[O-])cc4)o3)n2)cc1 | · | 11.9 | 12.6 | 5.5 | -15.2 | · | ·
c1ccc(C2CCC3(CC2)Oc2ccccc2C2CC(c4cccnc4)=NN23)cc1 (stereo not drawn) | · | 5.5 | 4.0 | 10.6 | -9.4 | · | 3.0
COc1ccc2cc(/C=N/NC(=O)CN(c3ccccc3C)S(=O)(=O)c3ccccc3)c(Cl)nc2c1 | -21.5 | · | · | · | · | 9675 | -3.0
O=C(c1ccco1)N1CCN(C(=O)C2CCN(S(=O)(=O)c3cnc[nH]3)CC2)CC1 | -14.0 | -0.3 | · | · | 2.6 | 3600 | 0.7
COc1cccc(OCc2cc(C(=O)N(C)Cc3nccn3C)no2)c1 | -54.1 | 2.0 | 2.8 | 3.4 | 1.6 | 5518 | -5.4
O=C(COC(=O)/C=C/c1cccc(C(F)(F)F)c1)NCCN1C(=O)CSC1=O | 10.2 | 3.4 | -7.1 | -7.7 | 1.8 | 2826 | ·
Cn1cc(C(=O)C(=O)NCCc2ccccc2)c2ccccc21 | -19.8 | 4.0 | 15.8 | 14.4 | 2.7 | 3382 | 1.9
C=CCn1cc(/C=N/NC(=O)COc2cccc3cccnc23)c2ccccc21 | -4.2 | · | · | · | · | 3155 | -14.7
O=C(CNC(=O)c1ccccc1)NCC(O)c1ccc([N+](=O)[O-])cc1 (stereo not drawn) | -19.8 | -2.6 | 7.6 | 4.6 | 8.6 | 5489 | -13.1
C=CCc1cc(OC)c2c(c1)OCO2 | -9.5 | 4.0 | · | · | -5.5 | 5439 | ·
CCc1ccc(C2N3CC4([N+](=O)[O-])CN2CC([N+](=O)[O-])(C3)C4(C)C)cc1 (stereo not drawn) | -29.7 | 5.1 | 9.8 | 4.2 | 2.2 | 10652 | 10.1
COCCNC(=S)N1CCOCC1 | -16.2 | 3.6 | 3.3 | -1.6 | 2.8 | 2259 | -7.2
Cc1cc(/C=C2\C(=N)N3N=C(C(C)C)SC3=NC2=O)c(C)n1-c1ccccc1 | -10.4 | · | · | · | · | 4550 | 3.0
O=C(CCN1CCCC1=O)NC1CCCc2c1cnn2-c1ccc(F)cc1F (stereo not drawn) | -17.4 | 4.1 | 9.1 | 5.8 | 4.9 | 5383 | 6.3
CCN1CCc2c(OCC(=O)N3CCC(C)CC3)cccc2C1=O | -6.3 | -0.7 | 4.7 | -3.5 | 3.9 | 3353 | -20.0
O=C(CNc1cccc(S(=O)(=O)N2CCCC2)c1)Nc1ccc(C(F)(F)F)cc1 | -5.0 | 0.9 | 11.1 | 14.7 | -9.0 | ? | 3.3
Cc1nnc(-c2cnn(-c3ccccc3)c2N)n1Cc1cccc(C(F)(F)F)c1 | -16.4 | 3.6 | 2.5 | 5.5 | 0.2 | 6402 | -27.3
Cc1oc(-c2ccc(Cl)cc2)nc1CS(=O)CC(=O)NCc1ccccc1 (stereo not drawn) | 11.1 | 1.3 | 2.3 | 7.1 | 8.5 | 4750 | -7.7
Cc1cc(C)nc(/N=C(\N)N2CCc3ccccc32)n1 | -28.2 | · | · | · | · | 5091 | 34.2
COc1ccc(-c2cc(-c3cccs3)nc3sc(C#N)c(N)c23)cc1 | 11.4 | -3.0 | 3.6 | 2.9 | -17.9 | 2358 | 12.8
C=CCOc1ccc(Oc2cc(C)nc(SC)n2)nn1 | -12.4 | 5.9 | · | · | 11.7 | 2917 | 5.1
CCOC(CNC(=O)CCc1c(C)nc2nc(C)nn2c1C)OCC | -17.1 | 1.9 | 7.2 | -0.3 | 9.9 | 3408 | 12.1
Cc1c(C(=O)N2CC3(CC(c4cccc(NC(=O)CC(c5ccccc5)c5ccccc5)c4)=NO3)CC2C(N)=O)cc([N+](=O)[O-])cc1[N+](=O)[O-] (stereo not drawn) | · | 1.2 | -2.8 | 6.3 | 5.1 | · | ·
CCOc1ccccc1C(=O)NCCCN1CCN(CCCNC(=O)c2ccccc2OCC)CC1 | -3.2 | 6.1 | 14.4 | 4.2 | 4.8 | ? | -2.4
COc1ccc(C(=O)Oc2ccc(C=NO)cc2)cc1 | · | 18.0 | 16.2 | 2.8 | -7.8 | · | ·
CCn1nc(C(=O)Nc2ccc(S(=O)(=O)Nc3ncccn3)cc2)c2ccccc2c1=O | -8.8 | -1.3 | 21.1 | 25.6 | 2.9 | 4416 | -8.8
Cc1cccn2c(=O)c(C=C(C#N)C#N)c(N3CCN(c4ccccc4)CC3)nc12 | 4.1 | 2.4 | 5.2 | 9.0 | -2.6 | 3930 | 4.7
NC(=O)c1ccc(NC(=O)COc2cccc3ccccc23)cc1 | -19.1 | -3.6 | -5.8 | -6.8 | 1.7 | 6268 | 6.1
COc1ccc(CCNC(=O)CSc2ccc(-c3ccco3)nn2)cc1 | -26.3 | 5.6 | 8.3 | 5.9 | 1.3 | 4199 | -1.3
COCCn1c(SCC(=O)c2c(-c3ccccc3)n(C)c3ccccc23)nnc1-c1ccncc1 | -14.0 | 4.1 | 1.0 | -4.2 | 3.2 | 2375 | 5.2
O=C(NC(=S)Nc1ccc(S(=O)(=O)Nc2nccs2)cc1)c1cccnc1 | -14.4 | · | · | · | · | 3122 | 3.1
COCCCN1C(=O)c2[nH]nc(-c3cc(C)cc(C)c3O)c2C1c1ccc(O)c(OC)c1 (stereo not drawn) | -22.4 | -4.3 | -11.0 | -7.2 | -4.0 | ? | 8.4
Cc1ccc(Cl)cc1N1CCN(C(=O)CCC(=O)O)CC1 | -16.5 | -0.3 | · | · | 10.3 | 3329 | -10.2
CCN(CC)C(=O)CS(=O)CC(=O)Nc1cc(OCCOC)c(Cl)cc1Cl (stereo not drawn) | -8.5 | -1.0 | -0.1 | 7.2 | -3.2 | 4776 | 1.8
COc1ccc(S(=O)(=O)N2CCOCC2)cc1NC(=O)COc1ccc2ccc(=O)oc2c1 | -1.8 | 6.4 | 3.5 | 2.9 | 8.3 | 2901 | ·
CCc1ccc(OCCOCC(O)CNC2CCCC2)cc1 (stereo not drawn) | -5.6 | 2.5 | 10.1 | 4.2 | 1.9 | 4285 | ·
CCOC(=O)C1CCCN(CC(=O)NC2CC2)C1 (stereo not drawn) | -4.7 | 3.8 | 5.2 | 7.9 | 7.5 | 16644* | -1.8
CC1CCC(NC(=O)CCN2C(=O)C3C4C=CC(C4)C3C2=O)CC1 (stereo not drawn) | -1.2 | 0.5 | -0.4 | 9.9 | -8.3 | 4953 | 0.6
Cn1c(/C=C/c2ccc(Br)cc2)c([N+](=O)[O-])c(=O)n(C)c1=O | 3.9 | -0.9 | 11.2 | 9.9 | 16.6 | 4113 | -12.1
Cc1nc2c(C#N)cnn2c2c1CCN2CC1CCCO1 (stereo not drawn) | -17.5 | 6.1 | 3.3 | 2.0 | 6.4 | 4268 | -12.5
O=C(CSc1ncccn1)NCc1cccc(Cl)c1 | -37.3 | 1.3 | 1.8 | 7.2 | -2.6 | 4315 | -3.3
CC(C)c1ccc(C=NNC(=O)c2ccc(Cn3cccn3)o2)cc1 | · | -2.5 | 8.9 | 2.0 | 3.0 | · | ·
OCCN1CCN(CC(O)COC(c2ccc(F)cc2)c2ccc(F)cc2)CC1 (stereo not drawn) | -6.2 | 3.6 | 2.7 | 2.3 | 11.4 | 3525 | 8.9
CNS(=O)(=O)c1cccc(C(=O)OCC(=O)NCCCc2ccccc2)c1 | -5.6 | 0.2 | 3.1 | 0.8 | 3.6 | 3749 | -8.8
Cc1ccc(S(=O)(=O)N2CCC(C(N)=O)CC2)cc1[N+](=O)[O-] | -15.7 | 4.9 | 9.0 | 10.4 | 13.2 | 3086 | 1.5
Continued:
SMILES | PrP 5UTR inh | Sa RN4220 lethal | Mtb hypoxia inh | Mtb hypoxia inh growth | Sa ugtP lethal | Bead autofluor | BJeLR viability
O=C(COc1ccc(S(=O)(=O)N2CCOCC2)cc1Cl)NCC1CCCO1 (stereo not drawn) | -16.6 | 2.6 | -2.2 | -5.6 | 11.2 | 3662 | 7.4
CCOC(=O)c1sc(NC(=O)CCc2ccc(OC)cc2)nc1C | -30.4 | -1.4 | -5.3 | -2.3 | 7.6 | ? | 7.5
Cc1cnc(C(=O)Nc2nnc(SCc3c(Cl)cccc3Cl)s2)cn1 | -15.6 | 23.1 | 1.9 | 7.4 | 0.6 | 2471 | -2.9
CCOCc1nnc(NC(=O)c2cc(OC)cc(OC)c2)s1 | -22.2 | -0.1 | -2.0 | 10.3 | 1.0 | 4466 | -2.0
O=C(c1ccco1)N1N=C(c2cccs2)CC1c1ccccc1O (stereo not drawn) | -13.1 | 2.9 | 0.6 | -0.5 | -5.3 | 6355 | -33.6
CC(C)c1ccc(S(=O)(=O)Nc2ccc(-n3cnnn3)cc2)cc1 | -2.8 | 6.0 | -3.3 | -4.9 | -0.4 | ? | ·

Some of the entries above, reformatted:
Every second line gives: PrP 5UTR inh	Sa RN4220 lethal	Mtb hypoxia inh	Mtb hypoxia inh growth	Sa ugtP lethal	Bead autofluor	BJeLR viability
Cc1cnc(C(=O)Nc2nnc(SCc3c(Cl)cccc3Cl)s2)cn1
 : -15.6	23.1	1.9	7.4	0.6	2471	-2.9
CCOCc1nnc(NC(=O)c2cc(OC)cc(OC)c2)s1
 : -22.2	-0.1	-2.0	10.3	1.0	4466	-2.0
